Source: PubChem BioAssay
NPYLR7 ag: mosquito NPYLR7 agonism; 0.15% of 270,000 active; HEK293T NPYLR7/Galpha15, GCaMP6s calcium fluorescence; activation, % at 10 µM; in the data active = activation above about 40%;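 note: 0% = vehicle and 100% = reference agonist at the receptor; some compounds past the cut are filed as inactive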
NPYLR7 ag max-min: recorded beside NPYLR7 ag, whose call it bears; activation, %; measured here: Max-Min RFU normalised activation; some inactives read as strong as hits;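 span of the calcium signal over five minutes; 0% = vehicle and 100% = native peptide agonist; compound fluorescence can raise it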
* marks the source's active call; other numbers are inactive results; & = joins results of further samples. This is a subset (hit frequency here may not be typical).

mol | NPYLR7 ag | NPYLR7 ag max-min
COCCN1CCCC(O)(CN(C)Cc2cccc(O)c2)C1=O (centres undefined) | -4 | -4
COc1cccc(C(=O)NC(=NC2CC2)OC(C)C)c1 | 18 | 14
N#Cc1c(N=CN2CCCC2)sc2c1CCCC2 | 9 | 9
CCCNC(=O)Cc1csc(SCC(=O)c2cccs2)n1 | 1 | 1
COc1ccc(-c2nc3scc(CCNC(=O)CCCc4ccccc4)n3n2)cc1 | 4 | 2
Cc1cc(Nc2ccc3c(n2)C(=O)N(CC(=O)NCCc2ccccc2)C3)n(C)n1 | 6 | 0
O=C(/C=C/c1ccccc1)Oc1ccccc1C(=S)N1CCOCC1 | 2 | 1
CCOC(=O)C1CCN(c2cc(Oc3ccc(Cl)c(C)c3)ncn2)CC1 | -8 | -7
COC(=O)C(C)Sc1ncnc2c1nnn2-c1ccc(OC)cc1 (centres undefined) | 14 | 13
O=C(Cn1cnc([N+](=O)[O-])n1)Nc1cc(Oc2cccc(C(F)(F)F)c2)cc([N+](=O)[O-])c1 | -2 | -8
O=C(c1sc2ccccc2c1Cl)N1CCN(Cc2ccc3c(c2)OCO3)CC1 | -5 | -9
Cc1ccc(NC2CCCN(C(=O)c3ccoc3)C2)cc1C (centres undefined) | 16 | 1
Cc1cccc2sc(N(CCCN(C)C)C(=O)c3nc4ccccc4s3)nc12 | 5 | 3
COc1cccc(CCNC2CC(=O)N(c3ccc(C)cc3)C2=O)c1 (centres undefined) | -7 | -12
COc1cccc(CN2CCC(C(=O)NC(c3ccc4c(c3)OCO4)c3ccccn3)CC2)c1 (centres undefined) | 11 | -1
CCOC(=O)C1=C(COC(=O)c2cc(Cl)ccc2Cl)NC(=O)NC1c1cccs1 (centres undefined) | 1 | -1
CCCNC(=O)NC1(C(F)(F)F)Oc2cc(Cl)c(Cl)cc2O1 | 7 | 0
CCn1nnc2c(Nc3ccc(C)cc3)ncnc21 | 5 | 12
CC1c2cc3c(cc2C2(CCCC2)CN1C(=O)CCNC(=O)c1ccco1)OCCO3 (centres undefined) | -1 | -1
CNC(=O)c1cncc(/C=C/C(=O)N(C)Cc2ccc(F)c(F)c2)c1 | -3 | -2
COc1ccccc1N1CCC(N2CC[C@H](CO)[C@H](O)C2)CC1 | 10 | 6
Cc1ccccc1N1C(=O)c2ccc(C(=O)OCC(=O)c3cccc([N+](=O)[O-])c3)cc2C1=O | -1 | -5
CN(CC1(CO)CC1)C(=O)[C@@H]1CCCCN1 | 2 | -1
C#CCOCC(O)CN(Cc1cccc(OC)c1OC)C1CC1 (centres undefined) | -1 | 1
CCCCn1cnc2c1c(=O)n(CC(=O)NC(=O)NCC)c(=O)n2CC(C)C | -10 | -9
COc1ccc(C(=O)Oc2ccc3c(-c4ccc(OC)cc4)cc(=O)oc3c2)cc1 | 1 | 0
COc1cccc(C=C2N=C(c3ccccc3OC(F)F)OC2=O)c1 | -1 | 31
N#Cc1cccc(CN(Cc2cccn2Cc2ccc(F)cc2)CC2CCCCC2)c1 | 2 | 14
CCOc1ccc2c(c1)C(C)CC(C)(C)N2C(=O)C1CCN(C(=O)C2CC2)CC1 (centres undefined) | 6 | 0
COc1ccc(CN2CCNC(=O)C2CC(=O)N(C)CCC2CCOCC2)cc1OC (centres undefined) | 15 | 4
COc1ccccc1Oc1nc([N+](=O)[O-])nn1C | -3 | -4
N#CC(=Cc1ccc(F)cc1)c1nnc2n1CCCCC2 | 3 | 0
COC(=O)c1c(C)nc(C)c2c(=O)[nH]c3cc(OC)c(OC)cc3c12 | -4 | -3
CCc1ccccc1NC(=O)Cn1nc(SC)c(-c2nc(-c3ccc(OC)cc3)no2)c1N | 2 | -2
COCCN(CC(=O)N1CCc2sccc2C1c1ccc(F)cc1)S(=O)(=O)c1ccc(NC(C)=O)cc1 (centres undefined) | -9 | -15
Cc1ccc(-c2nnc(NC(=O)C3CCCN3C(=O)Nc3c(C(C)C)cccc3C(C)C)s2)cc1 (centres undefined) | 22 | 23
COc1ccc(F)c(C(=O)N2CCC(Cc3cccc(C(=O)O)c3)C2)c1F (centres undefined) | 25 | 19
Cc1nc(SC(C)C(=O)c2c(N)n(C)c(=O)n(C)c2=O)c2c(C)c(C)sc2n1 (centres undefined) | 7 | 11
NC(=O)c1ccc(COC(=O)c2cncn2-c2ccccc2)cc1 | -5 | -9
COc1ccccc1-c1nc(C)c(-c2ccc(SCC(=O)N3CCCC3)nn2)s1 | 3 | 2
CC1CC(C)CN(c2nc(NCC3CCCO3)nc(N)c2[N+](=O)[O-])C1 (centres undefined) | 1 | -2
Cc1nc2sc(C(=O)OCc3ccc(Cl)cc3)c(C)c2c(=O)[nH]1 | 6 | 1
CC1CCN(c2ccc(NC(=O)COc3ccc(Cl)cc3)cc2C(=O)NCCc2ccccc2)CC1 | 0 | 4
CCOC(=O)N1CCN(C(=O)COc2ccc3c(C)cc(=O)n(Cc4ccccc4F)c3c2)CC1 | 3 | 1
CCCCCN(C(=O)NC(=O)NC(C)C1CC2CCC1C2)S(C)(=O)=O (centres undefined) | 6 | 3
CCc1nc(CN(C)C(=O)c2c(C)nn(-c3ccc(F)cc3)c2C)no1 | -6 | -6
CCOc1ccccc1N1CCN(C(=O)c2cc(-c3ccccc3)n(-c3cccc(OC)c3)c2C)CC1 | -3 | -2
CCn1cc(CNC2CCN(c3cccc(C)c3C)CC2)cn1 | 3 | 1
COc1ccc(-c2csc(-c3ccc(C)cc3)n2)c(OC)c1 | 0 | -2
COc1ccc(C(=O)N2CCCC2C(=O)Nc2nnc(-c3cccc(Br)c3)s2)c(OC)c1 (centres undefined) | 12 | 1
O=C(CN1CCC2(C=Cc3ccccc32)CC1)Nc1ccc(C(F)(F)F)cc1 | 7 | 7
COc1ccc(-n2nc(C(C)(C)C)c3c2N(CC(=O)N2CCCC2)C(=O)CSC3c2ccc(OC)c(OC)c2)cc1 (centres undefined) | -7 | -9
CC(C(=O)Nc1ccc(S(=O)(=O)Nc2cncs2)cc1)N1C(=O)c2ccccc2C1=O (centres undefined) | 2 | -1
CC(C)COC(=O)C1C2C=CC3(CN(Cc4cccs4)C(=O)C13)O2 (centres undefined) | 5 | 2
O=C(Cn1nnc2ccccc2c1=O)NC1CCCCCC1 | 5 | 4
CCc1ccc(NC(=O)CSc2ccc3nc(-c4ccc(OC)cc4)cn3n2)cc1 | 7 | 2
O=C(c1csc(CSc2nnc(-c3cccnc3)n2-c2cccc(C(F)(F)F)c2)n1)N1CCN(c2ccc([N+](=O)[O-])cc2)CC1 | 12 | 22
CN(CCC1CCOCC1)C(=O)CSCc1ccccc1Cl | 0 | -3
COc1ccc(C)cc1N1C(=O)CSC1c1cccc(NS(=O)(=O)c2ccc(F)cc2)c1 (centres undefined) | 3 | 15
Cc1onc(-c2ccccc2Cl)c1C(=O)Nc1ccccc1C(=O)O | -1 | -8

The results go on:
mol | NPYLR7 ag | NPYLR7 ag max-min
CCN(CC)c1ccc2cc(-c3nnc(Nc4ccc(OC)cc4OC)s3)c(=O)oc2c1 | 18 | 30
COc1ccc(S(=O)(=O)N2CCC(n3c(=O)[nH]c4ccccc43)CC2)cc1OC | -2 | -7
CCS(=O)(=O)c1ccc(-c2nnc(NC(=O)C3CCCN(S(C)(=O)=O)C3)o2)cc1 (centres undefined) | -4 | -4
O=C(CSc1ccc(NC(=O)c2ccccc2)nn1)NCc1ccc(F)cc1 | 4 | 7
O=C(CSc1nnc(CN2CCCCC2)n1-c1ccccc1)NCC1CCCCC1 | 5 | 6
CCC1c2ccsc2CCN1C(=O)C1CCN(S(=O)(=O)c2ccccc2)CC1 (centres undefined) | 3 | 3
NS(=O)(=O)c1ccc(CCN=Cc2ccc(Br)cc2)cc1 | 6 | 5
COc1ccccc1/C=C/C1=NC(=C\c2ccc(Br)cc2)/C(=O)O1 | -4 | -7
C/C(=C/c1ccccc1)CNCCCNc1ccncc1 | 7 | 4
C#CCN(CC(F)(F)F)C(=O)c1ccc(-c2ccccc2)cc1 | 10 | 5
Cc1ccc(CC(C#N)Sc2nc(C)c(C)n2CC2CCCO2)cc1 (centres undefined) | -3 | -3
CCOc1ccc(CC(=O)NCCc2cc3c(C)ccc(C)c3[nH]c2=O)cc1 | 9 | 6
COC(=O)C1OC2(OC1C(=O)OC)c1ccccc1-c1ccccc12 (centres undefined) | 4 | 5
O=C(C1CCCO1)N1CCC(NCCOc2ccccc2Cl)CC1 (centres undefined) | 8 | 5
CCc1c(C)sc(NC(=O)c2c(-c3ccccc3)noc2C)c1C#N | 15 | 19
C=CCN(Cc1nccn1Cc1ccc(Cl)c(Cl)c1)C(=O)C1CC1 | 1 | 5
COC(=O)c1ccccc1Cn1cnc2c1c(=O)n(C1CCCC1)c(=O)n2-c1cccc(OC)c1 | 4 | 3
CCOc1ccccc1C(=O)N1CC(=O)N(CCC#N)CC(O)C1 (centres undefined) | -8 | -1
CC(C)CCN1CCNC(=O)C1CC(=O)NCc1ccc(N2CCOCC2)cc1 (centres undefined) | 6 | 2
O=S1(=O)CCC(SCc2ccc(Br)cc2)C1 (centres undefined) | 16 | 12
Cc1cc(C(=O)N2CCC(n3c(C)nc4ccc(F)cc43)CC2)ccc1F | -8 | -12
COc1ccc(-c2nn3c(NCCN(C)C)cc(C)nc3c2C)cc1OC | 6 | 11
COc1ccc(Cc2nc3ccc(C(=O)NC(C)c4ccncn4)cc3o2)cc1 (centres undefined) | 24 | 13
Nc1cc(N2CCN(CCCc3ccccc3)CC2)nc(N)n1 | -4 | -6
Cc1cc(C(=O)N2CCOC(COc3ccc(F)cc3)C2)co1 (centres undefined) | 29 | 24
Cc1nc(CCN)cc(N2CCN(c3ccncc3C)CC2)n1 | 1 | -1
CCOC(=O)c1[nH]ncc1CN1CCN(C2CCN(C(C)C)CC2)C(CCO)C1 (centres undefined) | 3 | 2
COc1ccc2[nH]c(C(=O)N3CCCC(N(C)C)CC3)cc2c1 (centres undefined) | 5 | 5
COc1ccccc1CN1CCC(CN(CC(C)C)C(=O)C2CCCC2)CC1 | 8 | 5
Cc1c(C(=O)N2CCN(C(=O)Nc3cccc(Br)c3)CC2)cc(-c2ccc(F)cc2)n1-c1ccccc1 | -5 | 1
Cc1cc(C)c2[nH]c(C)c(CC(=O)NC(C)Cc3cc(C)[nH]n3)c2c1 (centres undefined) | 0 | -3
O=C(CC1C(=O)NCCN1C/C=C/c1ccccc1)NCC1(O)CCCCC1 (centres undefined) | 4 | 5
COc1ccccc1C(NC(=O)C1CCN(CCCN2C(=O)CC3CCCCC3C2=O)CC1)c1ccccn1 (centres undefined) | 5 | 4
O=C(Nc1cccc(O)c1)c1c(O)c2ccccc2[nH]c1=O | -6 | -8
O=C1CN(C(=O)C2CCN(C3=NS(=O)(=O)c4ccccc43)CC2)c2ccc(C(F)(F)F)cc2N1 | 15 | 12
COCCNC(=O)C(NC(=O)c1cccs1)C1CCN(C(=O)c2ccc(OC)cc2)CC1 (centres undefined) | 10 | 15
CC(=O)c1c(C)[nH]c(C(=O)OCC(=O)c2cc(C)n(Cc3ccco3)c2C)c1C | 2 | 9
OC(Cc1ccccc1)CN(Cc1cccn1Cc1cccc(F)c1)C1CC1 (centres undefined) | 26 | 26
CCCCCN1C(=O)/C(=C2\SC(=S)N(c3cccc(Cl)c3)C2=O)c2ccccc21 | 19 | 22
CC(C)(C)c1cc(Oc2cccc(F)c2)nc(SCc2cccc(Cl)c2)n1 | 1 | 8
Cc1ccc(-c2cc(C(=O)Nc3ccccc3Cl)c3ccccc3n2)cc1 | -8 | -10
CNS(=O)(=O)c1ccc(CN2CC[C@@H](c3sccc3C)[C@H](O)C2)cc1 | -3 | 2
COc1cccc(CO[C@]2(C(=O)NCCN(C)C)CC(OCc3ccccc3C#N)[C@H](O)[C@H](O)C2)c1 (some centres undefined) | 20 | 29
O=C(NCC1CCCCC1)c1ccc(CSc2ccc3ccccc3n2)cc1 | -8 | -15
CCCOC(=NCCCN1CCOCC1)NC(=O)c1ccc(Cl)c(Cl)c1 | -9 | -1
CCOC(=O)CNC(=O)CCc1cc2c(n1-c1ccc(C)cc1OC)-c1ccccc1OC2 | 3 | 1
Cc1ccc2oc(CN(Cc3ccccc3Cl)C(=O)c3ccc(Cl)nc3)nc2c1 | 24 | 28
CC1(C)C2CCC1(CS(=O)(=O)NNc1ccnc3cc(Cl)ccc13)C(=O)C2 (centres undefined) | -5 | -4
O=S(=O)(c1cnc[nH]1)N1CCN(C2CCCCC2)CC1 | 14 | 8
Cc1ccc(-n2c(C)cc(C(=O)COC(=O)C3COc4ccccc4O3)c2C)cc1 (centres undefined) | 1 | 0
CCOC(=O)N1CCN(Cc2nc(-c3ccc(C(F)(F)F)cc3)oc2C)CC1 | -7&18 | -8&5
O=C(COCc1ccccc1)N1CCN(Cc2ccc(-c3noc(-c4cccnc4)n3)cc2)CC1 | 1 | -1
O=C(CCC1CCN(C(=O)c2cccc3c2C(=O)c2cc(Cl)ccc2-3)CC1)NC1CC1 | 8 | 5
